RanGTP-Impb inh – inhibitors of RanGTP-importin-beta interaction, primary screen, biochemical, FRET, CFP-Ran, YFP-importin-beta, homogeneous; Ran GTPase (GTP-bound) - importin-beta complex; cell-free CFP-Ran/YFP-importin-beta FRET ratio; inhibition, % (test concentration not listed); 300,000 tested, 1.1% active; AID 2216, 2009;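 active means most replicates above 15%; inconclusive means exactly half above 15%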;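 further: 0% = DMSO wells and 100% = Ran loaded with GDP instead of GTP; wells of about 40 µL received 100 nL stock; the first replicate is given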
T cruzi inh – inhibitors of intracellular T. cruzi growth, primary screen, luminescence, NIH3T3 host cells; T. cruzi beta-gal in NIH3T3, 90 h; inhibition, % (test concentration not listed); 300,000 tested, 1.4% active; AID 1885, 2009;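 active means mean inhibition across valid replicates above about 55%, limit read from the data; inconclusive means mean below that limit but half or more replicates reach it; inactive means mean below it, under half of replicates reach it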;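 further: signal also drops with host cell toxicity which is not excluded here; 0% = plate median of DMSO wells and 100% = zero luminescence signal; higher percent means less beta-gal luminescence so fewer parasites; stock transfer was 50 nL into about 50 µL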
Vif A3G – inhibitors of Vif binding to APOBEC3G peptide, primary screen, biochemical, TR-FRET, GST-Vif 1-94, biotin-A3G peptide, dose response retest (AID 1117319); Virion infectivity factor (Human immunodeficiency virus type 1 group M subtype B (isolate …; TR-FRET GST-Vif / biotin-A3G peptide binding; higher % means a stronger effect; test concentration not given here; strong numbers were not always called active; inhibition, %, or IC50 in µM where a hit was titrated; 260,000 tested, 0.57% active;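 active means above the screen mean plus three standard deviations and confirmed in dose response; inconclusive means results disagree or hit not tested in dose response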;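 further: Vif residues 1-94 fused to GST binding biotinylated APOBEC3G peptide 110-148; 0% = full assay without inhibitor and 100% = GST in place of GST-Vif; retest series ran down from 100 µM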
Beta apoptosis – inhibitors of cytokine-induced beta cell apoptosis, primary screen, luminescence. INS-1E cytokine-induced death, ATP luminescence, 48 h; percent of positive-control rescue, neutral wells zero. protection from apoptosis, % (concentration not given with the values). AID 435005, 2010. 300,000 tested, 0.8% active;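 active means all replicates at 75% or more, or half of them and the mean; inconclusive means half reach 75% but not the mean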;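 further: 0% = cytokine-treated negative control wells and 100% = positive control rescue; higher means more ATP so stronger rescue from cytokine killing; wells of about 40 µL received 100 nL stock; the first replicate is given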
MLL AF4-AF9 inh – inhibitors of AF4 peptide binding to AF9, primary screen, biochemical, AlphaScreen, biotin-AF4 peptide, FLAG-AF9, single point; Protein AF-9 (Homo sapiens), P42568; AID 651704, 2012; 350,000 tested, 0.47% active; inhibition, % at 10 µM;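 active means every replicate reaching a set inhibition limit, whatever the replicate mean, cut at about 25% in these data; inconclusive means mean inhibition reaches that limit but some replicates miss it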;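 further: 0% = plate neutral control median and 100% = total signal loss; the record names both 10 and 1 µM as test concentration; the first replicate is given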
Target sequence (P42568 whole entry, looked up): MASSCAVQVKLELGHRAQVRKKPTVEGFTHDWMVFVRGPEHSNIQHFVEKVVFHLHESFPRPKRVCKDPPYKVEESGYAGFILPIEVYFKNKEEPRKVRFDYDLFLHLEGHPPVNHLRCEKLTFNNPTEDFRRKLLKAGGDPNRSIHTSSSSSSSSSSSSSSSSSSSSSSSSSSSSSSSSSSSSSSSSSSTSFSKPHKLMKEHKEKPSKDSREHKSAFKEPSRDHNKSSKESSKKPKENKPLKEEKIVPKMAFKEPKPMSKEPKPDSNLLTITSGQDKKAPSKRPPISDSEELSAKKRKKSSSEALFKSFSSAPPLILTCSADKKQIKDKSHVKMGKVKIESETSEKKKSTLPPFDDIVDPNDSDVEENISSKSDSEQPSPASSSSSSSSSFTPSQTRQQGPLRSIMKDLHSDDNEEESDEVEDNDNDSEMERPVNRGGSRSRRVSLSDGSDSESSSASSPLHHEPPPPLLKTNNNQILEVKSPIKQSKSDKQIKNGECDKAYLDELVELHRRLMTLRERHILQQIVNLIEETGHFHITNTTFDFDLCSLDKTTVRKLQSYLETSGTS
Calb FLC – C. albicans growth inhibition with fluconazole, primary screen, CaCi-2 strain, Alamar Blue fluorescence. C. albicans CaCi-2 (fluconazole-resistant clinical isolate) + fluconazole, 48 h. growth inhibition, % (test concentration not listed). 300,000 tested, 0.57% active. AID 1979, 2009;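 active means most replicates above 75%; inconclusive means exactly half above 75%; inactive means most below 75%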;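 further: all wells also contain fluconazole at 8 µg/ml as a sub-toxic cotreatment; 0% = median of DMSO wells and 100% = median of geldanamycin control wells; wells of about 8 µL received 7.5 nL stock; the first replicate is given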
A1 inh – caspase 3/7 activation in MEF A1-2A-BIM cells, primary screen, A1 inhibitor project, cell-based, luminescence, HTS; Caspase-Glo 3/7 luminescence, 3 h; percent of clofoctol response, vehicle zero; caspase activation, % (no concentration beside the values); 330,000 tested, 0.066% active;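 active means over half of replicate activation scores above 10%, or exactly half above 10 with the replicate mean above 10; inconclusive means replicate mean below 10 yet half the replicates above 10; inactive means over half of replicates below 10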;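 further: wells of about 30 µL received 50 nL stock; many hits fall short of the cut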
LANA-H2B inh – blockers of LANA interaction with H2A/H2B – biochemical, FP readout, HTS, primary screen; 320,000 tested, 0.6% active; inhibition, % (concentration not given with the values); Protein LANA1 (Human herpesvirus 8 type P (isolate GK18)), Q9QR71; cell-free LANA-H2A/H2B peptide, fluorescence polarization; in the data active means inhibition mostly above about 10%, no sharp cut-off; inactive means mostly below about 6.7%;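 further: stock transfer was 7.5 nL into about 10 µL; 0% = median of vehicle wells and 100% = median of positive control wells; one replicate is shown; the record names a cut of 25% in any replicate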
* marks the source's active call; other numbers are inactive results; ? = inconclusive; · = no result given; & = joins results of further samples. Not a hit list. Share with any hit: about 4.3%.

SMILES	RanGTP-Impb inh	T cruzi inh	Vif A3G	Beta apoptosis	MLL AF4-AF9 inh	Calb FLC	A1 inh	LANA-H2B inh
COc1ccc(NC(=O)c2ccc(Cl)nc2)cc1S(=O)(=O)N1CCCCC1	1.3	-14	20%	-10	·	-21	0.0	9.0
O=C(CN1CCN(CN2C(=O)NC3(CCCCCC3)C2=O)CC1)Nc1ccc(F)cc1	·	·	·	-4	-1.0	·	0.0	-6.1
CC(C)c1ccc(NC(=O)COC(=O)C2=COCCO2)cc1	-1.9	-19	?	-7	·	-31	-0.8	-2.5
COC(=O)c1oc(-c2ccccc2)nc1C	-1.2	-10	-3%	1	-2.8	30	-0.5	-4.3
CCc1ccc(NC(=S)N(CCN2CCCCC2)Cc2ccco2)cc1	-3.6	-5	·	-1	·	-13	0.4	1.4
COc1cccc(NC(=O)c2ccccc2N2C(=O)C3C4C=CC(C5CC45)C3C2=O)c1 (stereo not given)	3.5	-10	-3%	-8	4.7	7	-0.1	-1.0
Cc1cc(C)c(S(=O)(=O)N2CCCC2)c(C)c1	?	-8	·	·	0.5	2	0.9	-1.6
O=C(O)/C=C/C(=O)N1CCN(c2cccc(Cl)c2)CC1	·	-11	?	3	-5.0	36	0.4	1.8
O=C(c1ccccc1)[C@@H]1[C@@H](C(=O)c2ccc(F)cc2)[C@@]2(C(=O)Nc3ccccc32)[C@H]2c3ccccc3C=CN12	21*	12	?	15	-14	0	-0.4	13
CCOC(=O)c1cccc(NC(=O)CCS(=O)(=O)c2ccc(Br)s2)c1	2.2	6	-33%	-4	·	-13	0.2	0.6
CCOC(=O)c1c(N=CN(C)C)c(C#N)c2n1CCCC2	3.5	-5	·	-4	·	6	0.0	-1.0
CC(C(=O)O)c1n[nH]c(=O)c2ccccc12 (stereo not given)	-0.1	-23	5%	-4	·	-5	0.8	1.4
COc1ccc(C2C(C#N)=C(SCC(=O)Nc3ccc(C)cc3)NC3=C2C(=O)CC(C)(C)C3)cc1 (stereo not given)	4.7	13	69%	-4	·	1	0.2	-1.0
NS(=O)(=O)c1ccc(CCNC(=O)CNS(=O)(=O)c2cccc(Br)c2)cc1	-4.1	-2	·	-9	-0.4	15	0.8	2.1
O=C(NCC(=O)N1CCN(c2ccccn2)CC1)c1ccc(Br)o1	4.0	8	4%	·	-0.7	-5	-1.9	-2.2
CCn1c(SCC(=O)Nc2cc(C)on2)nc2c([nH]c3ccccc32)c1=O	-2.1	7	4%	26	-2.9	4	0.7	-1.0
O=c1[nH]n(Cc2ccccc2)c2ccccc12	1.6	?	·	-8	-0.6	5	0.3	2.9
CCN(CC(=O)Nc1ccc(NC(C)=O)cc1)Cc1c(O)ccc2cc(Br)ccc12	1.8	18	·	2	-2.2	21	0.2	-0.2
COc1cccc(CNC(=O)N2CCN(c3ccccc3C)CC2)c1	2.9	-5	·	1	-5.5	9	0.2	-2.1
COc1ccc(CN(C(=O)CSc2nnc(-c3c[nH]c4ccccc34)o2)c2ccc(F)cc2)cc1OC	0.7	51	22%	-17	·	-1	-1.6	-1.6
COc1cccc2cc(-c3nc4ccccc4o3)c(=O)oc12	-1.8	0	4%	-7	-0.7	8	-2.5	-1.3
O=C(COc1ccc2c(c1)oc(=O)c1ccccc12)NCCCN1CCOCC1	2.4	8	-2%	2	-4.2	5	1.1	4.9
CC1CN(C(=O)COC(=O)c2cc(Cl)ccc2Cl)CC(C)O1 (stereo not given)	1.6	-6	·	1	3.8	5	0.1	1.9
COc1ccc(-c2cc(=O)c3ccccc3o2)cc1	-3.3	4	·	·	-1.6	0	0.4	8.6
COc1ccc2cc(C(=O)NCCCN3CCCC3=O)[nH]c2c1	0.5	-6	6%	-6	-0.8	-6	0.2	-1.2
Next entries:
SMILES	RanGTP-Impb inh	T cruzi inh	Vif A3G	Beta apoptosis	MLL AF4-AF9 inh	Calb FLC	A1 inh	LANA-H2B inh
CN(C)/C=C(\C#N)C(=O)N/N=C(\CC(=O)C(F)(F)F)c1ccco1	-1.2	-2	·	-4	-0.4	37	-0.2	-3.4
Cc1ccc(S(=O)(=O)c2c(C)nn(-c3ccccc3)c2OC(=O)c2ccco2)cc1	5.8	-11	-1%	-7	2.3	5	-0.5	-14
Cc1ccc(NS(=O)(=O)c2cc(NC(=O)c3ccc4c(c3)NC(=O)CS4)ccc2Cl)c(C)c1	1.0	25	·	18	-1.3	46	0.0	-0.4
Cc1ccc(OCC(=O)N/N=C/c2ccco2)cc1	-2.1	-6	-1%	7	8.1	-16	?	-1.3
COC(=O)c1cc(S(=O)(=O)N(C)c2ccc(C)c(C)c2)c[nH]1	2.0	-11	·	-1	-1.9	-6	-0.2	0.1
O=S(=O)(N/N=C\c1ccc2c(c1)OCO2)c1ccc(Cl)cc1	7.1	-5	16%	-5	·	-5	-1.0	-7.0
CC(=O)c1ccc(S(=O)(=O)N2CCN(C(=O)c3ccc(-n4nc(C)c(Cl)c4C)cc3)CC2)cc1	·	·	-4%	7	-0.4	·	1.1	15
CCOc1ccc(NC(=O)c2cccc3c2C(=O)N(Cc2cccnc2)C3)cc1	2.3	22	-8%	0	·	-3	-1.2	1.4
C/C(=N\NC(=S)NC1CCCCC1)c1cccc(C(F)(F)F)c1	4.8	42	-9%	6	6.7	1	-0.9	10.0
O=C(CSc1ccccn1)C12CC3CC(CC(C3)C1)C2	1.8	25	-4%	-6	-15	0	-0.3	4.2
CC(C)Cc1nc(SCC(=O)N2CCCCC2)c2c(=O)n(C)c(=O)n(C)c2n1	1.3	12	-4%	1	0.9	1	0.5	6.7
Cc1nn(-c2ccccc2)c2sc(C(=O)NNC(=O)COc3cccc4ccccc34)cc12	2.8	-3	-3%	2	·	25	-0.6	4.6
COc1ccc(CN(C)C(=O)CCN2C(=O)c3ccccc3C2=O)c(OC)c1OC	-5.6	-3	·	·	-1.3	-1	0.7	3.2
Cc1c(OC(C(=O)O)c2ccccc2)ccc2c1oc(=O)c1ccccc12 (stereo not given)	-3.3	-13	·	-2	-11	7	-1.2	3.0
CC(C)Oc1cccc(NC(=O)c2cnccc2C(F)(F)F)c1	-0.3	-3	?	-1	-0.4	-16	0.5	1.5
Cc1ccc(Cl)cc1NC(=O)Cn1cc(C(F)(F)F)cc(Cl)c1=O	4.8	-1	-18%	0	-3.5	3	0.2	-3.3
COc1ccc(Nc2nc(C)nc3c2nnn3Cc2ccccc2Cl)c(OC)c1	2.2	-5	·	·	-2.5	-1	0.7	-1.0
CCN1CCN(C2CCCCC2NS(=O)(=O)c2ccc(Cl)cc2)CC1 (stereo not given)	1.6	0	·	-7	·	-12	1.6	16*
Cc1cccc(NC(=O)CCCC(=O)OC(C)C(=O)c2ccccc2)c1 (stereo not given)	0.4	-1	·	-4	1.1	-7	0.2	-2.4
Cc1ccc(NC(=O)c2ccc(-n3cccn3)c([N+](=O)[O-])c2)cc1	4.5	3	7%	-7	·	-16	1.1	2.0
CC(C)(C)c1ccc(C(=O)NCC(=O)OCC(=O)N2CCN(S(=O)(=O)c3ccc(Cl)cc3)CC2)cc1	-1.7	-9	2%	3	1.2	-5	-1.7	2.7
O=C1N=c2ccccc2=C1c1[nH]c(=S)[nH]c1O	-1.8	24	?	-3	-0.3	11	-0.2	12*
NC(CCC(=O)O)C12CC3CC(CC(C3)C1)C2 (stereo not given)	4.9	-2	7%	-12	1.1	0	0.5	2.7
COc1ccccc1N(CC(O)Cn1ccnc1C)S(=O)(=O)c1ccccc1 (stereo not given)	0.0	1	3%	·	3.4	-14	0.8	2.0
O=C(NCC1CCCO1)NC12CC3CC(CC(C3)C1)C2 (stereo not given)	7.1	-15	-2%	2	·	-8	0.5	-0.9
The list goes on.
SMILES	RanGTP-Impb inh	T cruzi inh	Vif A3G	Beta apoptosis	MLL AF4-AF9 inh	Calb FLC	A1 inh	LANA-H2B inh
Cc1ccc(CCNS(=O)(=O)c2ccc3c(c2)NC(=O)CCS3)cc1	3.4	6	·	-1	-1.9	3	0.2	-0.3
CCn1c(SCC(=O)Nc2nccs2)nnc1-c1ccc(S(=O)(=O)N2CCCCC2)cc1	3.5	11	0%	5	·	13	-0.9	2.4
C=CCN1C(=O)c2ccccc2Sc2ccc(C(=O)N3CCN(C)CC3)cc21	3.6	-2	1%	-2	·	33	0.6	-5.0
C[C@H]1CN([C@@H](C)CO)C(=O)c2cccc(NC(=O)C3CC3)c2O[C@H]1CN(C)Cc1ccc(-c2ccccc2)cc1	·	·	·	5	3.2&-0.3	·	0.9	-0.7
CCc1nc2ccc(C(=O)Nc3ccc(NC(C)=O)cc3)cc2nc1CC	?	-7	·	0	-2.3	-24	1.3	2.4
O=C(Nc1ccc(N2CCOCC2)cc1)c1cccc(S(=O)(=O)N2CCCC2)c1	-0.6	·	27%	-2	·	-8	0.0	1.7
CN(C)c1ccc(N2CC(C)(C)C2=O)cc1	-1.4	-17	19%	·	-0.6	-7	2.1	12
CNNC(=O)C(C)NC(=O)c1ccc(Br)cc1 (stereo not given)	?	-7	-1%	-5	·	1	-0.3	-6.3
COc1cccc(N(C(=O)c2sc(C)nc2C)C(C(=O)NCC2CCCO2)c2ccccc2)c1 (stereo not given)	-0.8	-12	-1%	-2	-2.2	12	-0.3	-2.4
COc1ccc(CNC(=O)Cn2nc([N+](=O)[O-])c(Br)c2C)cc1OC	-4.6	29	·	-4	-0.5	0	0.0	3.1
COc1ccc(-n2nc(C(=O)NCC(=O)Nc3cc(OC)c(OC)c(OC)c3)c3ccccc3c2=O)cc1	0.5	-13	·	7	-1.1	5	-0.3	2.4
CCN(C(=S)NC(=O)CCc1ccccc1)c1ccccc1	1.1	5	·	2	4.9	-26	0.2	-0.7
O=S(=O)(c1ccc(S(=O)(=O)N2CCC(O)CC2)cc1)N1CCCC1	0.1	-3	·	-4	0.1	8	-0.2	-3.3
COc1ccc(NC(=O)/C(C#N)=C/c2c(C)nn(-c3ccc(F)cc3)c2Cl)cc1OC	0.6	-3	21%	-8	-2.9	-1	0.2	-0.9
Cc1cc(NC(=O)C2CCCC2)nc2c1c(=O)oc1ccccc12	6.3	·	9%	10	·	1	-1.8	-0.5
CC(C)(C)c1ccc(-c2noc(CCC(N)=O)n2)cc1	3.8	3	?	-3	·	8	-1.3	-2.4
O=C(CSc1nc2ccccc2[nH]1)Nc1ccc2[nH]c(=O)[nH]c2c1	·	·	·	-5	-5.3	·	0.3	1.7
COc1ccc(-c2nnn(CC(=O)N(CCO)C(C(=O)NC3CCCC3)c3ccncc3)n2)cc1 (stereo not given)	0.8	-29	-5%	-10	0.7	-3	0.0	3.7
O=C(Nc1ccccc1)Oc1cccc(Br)c1	0.5	2	-13%	0	-2.6	-3	-5.4	2.1
CSCCC(NS(=O)(=O)c1cccc(C(F)(F)F)c1)C(=O)Nc1ccccc1N1CCCC1 (stereo not given)	-0.6	3	7%	5	-3.3	-6	-0.7	1.7
CCn1c(C(=O)NCc2ccccn2)cc2sccc21	-0.2	7	-1%	-8	·	0	-0.8	-0.7

Source: PubChem (several laboratories)
